Compound activity: PubChem, Broad Institute
Tgondii IFNg = T. gondii growth inhibition under IFN-gamma; 69,000 compounds, 3.8% hits; activity change, negative = inhibition, %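 (about 20 µM by stock and volumes)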; Toxoplasma gondii growth in IFN-gamma-treated host cells; stronger effect = lower value; reference of the scale not given here;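 active = below -70%; inconclusive = fit judged invalid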;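 note: host cells are HeLa cells infected with Toxoplasma gondii; parasite growth read as luciferase light; one replicate is shown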
Active calls of the source: *; i = inactive; ? = inconclusive; & = joins results of further samples. This is a subset, so the mix of outcomes need not match the whole.

compound | Tgondii IFNg
Cn1cc(N2CCC3(CCN(C(=O)c4ccncc4)C3)C2=O)cn1 (stereo not drawn) | 9
CNC[C@H]1Oc2ccc(NC(=O)CCC(F)(F)F)cc2C(=O)N([C@H](C)CO)C[C@H]1C | -47
COc1ccc(S(=O)(=O)Nc2cncc(C(=O)Nc3cccc(Cl)c3)c2)cc1OC | 8
CCCC#Cc1ccc([C@H]2[C@@H](CO)N3C(=O)CN(C(=O)Nc4cccc(F)c4)C[C@@H]23)cc1 | 7
CC(=O)N1CCc2nnc(C3CCCN3Cc3cccc(C)c3)n2CC1 (stereo not drawn) | -4
CC(NC(=O)c1conc1-c1ccccc1)c1nnc2n1CCNCC2 (stereo not drawn) | 2
O=C(CC1N=C2c3ccccc3N=C(SCc3cc(=O)n4ccccc4n3)N2C1=O)NCc1ccc(F)cc1 (stereo not drawn) | 28
CC(=O)N1[C@@H](CO)[C@H](c2ccccc2)[C@@H]1CNC(=O)CN1CCOCC1 | -6
CCOc1ccc(-c2nc(Cn3cnc4nc5c(cc4c3=O)CCCC5)c(C)o2)cc1 | -49
O=C1Nc2ccc(F)cc2/C1=N/N1CCOCC1 | 69
Cn1c2ccccc2c2cc(/C=C(\NC(=O)c3ccccc3)C(=O)O)ccc21 | 6
CN(C)c1nc2c(c(N3CCN(C(=O)c4ccco4)CC3)n1)CN(Cc1ccccc1)CC2 | -32
CCc1nc(N2[C@H](C#N)[C@@H](c3ccccc3-c3ccccc3C)[C@@H]2CO)sc1C | -41
COc1ccccc1C(=O)N1CCC2(CC1)Nc1ccc(Cl)cc1-n1cccc12 | 62
CCc1nn(CC(=O)O)c(=O)c2ccccc12 | 3
O=C1c2ccc3c4c(ccc(c24)C(=O)N1Cc1ccco1)C(=O)N(Cc1ccco1)C3=O | -43
CC(C)Nc1nc2c(cc1C(=O)N1CCCC1)CCN(CC1CC1)CC2 | -15
CCC(=O)N1CC2(CCN(C(=O)Cc3ccccc3)CC2)c2c(n(C)c3cc(OC)ccc23)[C@@H]1CO | 69
Fc1ccc(CN2CCC3(CC(n4cnnc4)CO3)C2)cc1 (stereo not drawn) | 161
O=S(=O)(c1ccc(Cl)s1)N1CCC2(CC1)Nc1ccccc1-n1cccc12 | 9
CC(C)c1noc(-c2cc(=O)n(CC(=O)NCc3cccc(Cl)c3)c3ccccc23)n1 | 77
CCCC(=O)Nc1cc(OC)c(NC(=O)c2cccc(C)c2)cc1OC | 5
NC(=O)NCCCC(N)C(=O)O (stereo not drawn) | -37
O=C1NC(=O)C(c2ccccc2[N+](=O)[O-])=C1Nc1ccc(O)c(Cl)c1 | 1&-16

5 structures already listed, arranged by SMILES length, descending:
compound | Tgondii IFNg
O=C(CC1N=C2c3ccccc3N=C(SCc3cc(=O)n4ccccc4n3)N2C1=O)NCc1ccc(F)cc1 (stereo not drawn) | 28
O=C1c2ccc3c4c(ccc(c24)C(=O)N1Cc1ccco1)C(=O)N(Cc1ccco1)C3=O | -43
CN(C)c1nc2c(c(N3CCN(C(=O)c4ccco4)CC3)n1)CN(Cc1ccccc1)CC2 | -32
CC(C)c1noc(-c2cc(=O)n(CC(=O)NCc3cccc(Cl)c3)c3ccccc23)n1 | 77
CC(NC(=O)c1conc1-c1ccccc1)c1nnc2n1CCNCC2 (stereo not drawn) | 2

(more compounds)
compound | Tgondii IFNg
Cc1nc(C)n(CC(C)C(=O)N2CCc3[nH]nc(-c4ccccc4F)c3C2)n1 (stereo not drawn) | 0
COc1cc2c(cc1CN1CCCN(c3ccnc(C)c3)CC1)OCCO2 | -7
CS(=O)(=O)c1ccc(C2CC(=O)Nc3c2cnn3CC2CCCCC2)cc1 (stereo not drawn) | -43
Cc1cccc(CN2CCCC3(CCN(S(=O)(=O)c4ccc(F)cc4)C3)C2)n1 (stereo not drawn) | -9
CCOC(=O)CC1(S(=O)(=O)c2ccc(F)cc2)CCN(Cc2ccccc2)CC1 | -21
C[C@@H]1CN([C@@H](C)CO)C(=O)CCCn2nncc2CO[C@H]1CN(C)C(=O)Nc1ccc2c(c1)OCCO2 | i
CN(Cc1ccccn1)C(=O)c1ccc2onc(-c3coc(-c4ccccc4)n3)c2c1 | -15
COc1ccccc1C(=O)n1nc(C)c(Sc2nnc(C(F)(F)F)n2C)c1C | 25
CCc1cc2c(=O)c(-c3nc(C)cs3)coc2cc1OC(C)C(=O)NCCO (stereo not drawn) | -42
CC(C)CNc1nc2c(cc1C(=O)NCC1CC1)CCN(c1ccncn1)CC2 | -39
COc1ccc2c3c(n(C)c2c1)[C@H](CO)N(C(C)=O)CC31CCN(Cc2ccccc2OC)CC1 | 100
CNC(=O)c1cc(=O)n(CC(=O)Nc2ccccc2F)c2ccccc12 | 13
Cc1nnsc1CN(C)Cc1ncc[nH]1 | 10
COCCN1C[C@H]2CCCO[C@H]2[C@H](N(C)Cc2ccco2)C1 | 87
COCC12CCCOC1CCN(c1nncs1)C2 (stereo not drawn) | 6
COCCN1C2CCC1CN(C(=O)c1cccc(C#N)c1)C2 | -7
CCOC(=O)c1c(NC(=O)CN2CCN(c3ccc(Cl)cc3)CC2)sc(C)c1C | -11
Cc1cccc2c(C(=O)NCc3nc(-c4ccccc4)no3)cc(=O)[nH]c12 | -12
O=C(NCCc1csc(-c2ccc(F)cc2)n1)c1cc2ccccc2oc1=O | 27
COc1ccc(-c2noc(-c3c(O)c4ccccc4[nH]c3=O)n2)cc1 | 9
Nc1nc(NC(=O)CCC(=O)O)nn1-c1ccccc1 | -34
N#CCN1C(=O)CC2(CCN(c3ncccn3)CC2)c2ccccc21 | 4
O=C(CC1CC1)N1CC2(C1)[C@H](c1ccccc1)[C@H](CO)N2Cc1ccccn1 | 73
NC(=O)c1cncc(-c2ccc(F)cc2Cl)c1 | 2
N#CCSC1=Nc2ccccc2C2=NC(CC(=O)NCc3ccco3)C(=O)N12 (stereo not drawn) | 18
CCN1c2ccc(F)cc2C(=O)NC12CCN(C(=O)Cc1cccc(F)c1)CC2 | 5
CNC(=O)C[C@H]1C[C@@H]2CN(S(=O)(=O)c3cccnc3)C[C@@H]2O1 | -7
Cc1ccc(C(C)NC(=O)Cn2ncc3c(N4CCN(c5ccccn5)CC4)ncnc32)cc1 (stereo not drawn) | 112
CN(C)C(=O)COCc1noc2c1CN(Cc1nccn1C)CC2 | -4
COC(=O)c1cc(=O)c2cc(NC(=O)c3ccc(OC(F)(F)F)cc3)ccc2[nH]1 | -2
Cc1ncccc1OC1(C(=O)NCCc2ccccn2)CCNCC1 | 8
C/C=C/c1ccc([C@@H]2[C@H](CO)N[C@H]2CN(CC(C)C)C(=O)c2ccccn2)cc1 | 4
O=C1NCCNC12CCN(S(=O)(=O)c1cc(Cl)c(Cl)s1)CC2 | -5
Cc1ccc(S(=O)(=O)N(C)C[C@@H]2Oc3cc(C#CC4CCCC4)ccc3S(=O)(=O)N([C@H](C)CO)C[C@H]2C)cc1 | ?
CC(C)(N)c1cn(CC2CCN(C(=O)NC3CCCCCC3)CC2)nn1 | 5
O=C(NCc1cccnc1)c1ccccc1NS(=O)(=O)Cc1ccc(F)cc1 | 4
O=C(NC1CCc2[nH]ncc2C1)c1cccc(CC2CCNCC2)c1 (stereo not drawn) | 3
COCc1cc(=O)[nH]c(/N=C(\N)Nc2ccc(Oc3ccccc3)cc2)n1 | -14
CCOC(=O)C1CCC(CNC(=O)Nc2ccc(-c3nc(-c4cc(C)ccc4C)co3)cc2)CC1 (stereo not drawn) | 5
Cc1ccc(CC(=O)N2CC(C(=O)N3CCCC3)C3(CCOCC3)C2)cc1 (stereo not drawn) | 14
CO[C@@H]1CN(C)C(=O)c2ccc(NC(=O)C3CCOCC3)cc2OC[C@@H](C)N(Cc2ccc(F)cc2)C[C@H]1C | 69
Cc1ccc(-c2nnc(-c3nc(Nc4cccc(C)c4)c4ccccc4n3)o2)cc1 | -34
CC1Cc2cc(CN(C)C(=O)Cn3c(=O)oc4ccc(Cl)cc43)ccc2O1 (stereo not drawn) | -92*
Cc1cc(C)n(C(C)c2n[nH]c(CC(C)C)n2)n1 (stereo not drawn) | -7
Cc1cccc(C(=O)Nc2c(C(=O)N3CCN(c4ccccn4)CC3)[nH]c3ccccc23)c1 | 4
Cn1cccc1CNC1C2CC3CC(C2)CC1C3 (stereo not drawn) | 31
COc1ccc(C(=O)OCC2CCCN3CCCCC23)cc1 (stereo not drawn) | -3
CC(=O)N1CCC(C(=O)NCc2ccccc2)(N(C(=O)c2ccc(C)cc2)c2ccc(C)cc2)CC1 | 1

Some of the entries above in another layout.
CO[C@@H]1CN(C)C(=O)c2ccc(NC(=O)C3CCOCC3)cc2OC[C@@H](C)N(Cc2ccc(F)cc2)C[C@H]1C
  Tgondii IFNg: 69
Cc1ccc(-c2nnc(-c3nc(Nc4cccc(C)c4)c4ccccc4n3)o2)cc1
  Tgondii IFNg: -34

The listing continues.
compound | Tgondii IFNg
COc1ccc(-c2ccccc2[C@H]2[C@@H](C#N)N(C(=O)C3CCC3)[C@@H]2CO)cc1 | 16
c1ccc(-c2ncc3c(n2)C2(CCN(c4ncccn4)C2)COC3)cc1 (stereo not drawn) | -10
CC(C)NC(=O)N1[C@H](CO)[C@H]2c3ccccc3N(C)C[C@H]21 | -4
Cc1cc(C(=O)N2CCC(c3noc(-c4ccncc4)n3)CC2)cs1 | -15
Cc1n[nH]c(C)c1Sc1nnc(C(F)(F)F)n1C | -30
CN(C)S(=O)(=O)N1Cc2nnn(C)c2C(COCC2CC2)C1 (stereo not drawn) | 64
CC(C)N1CCN(c2ccc(OC[C@H]3CO[C@](Cn4cncn4)(c4ccc(Cl)cc4Cl)O3)cc2)CC1 | -53&8
CN(C)CCN1C2(CCN(C(=O)N3CCOCC3)C2)c2ccccc2S1(=O)=O (stereo not drawn) | 9

Gathered by group: the entries above containing a thiophene ring, fused or not (4)
compound | Tgondii IFNg
O=S(=O)(c1ccc(Cl)s1)N1CCC2(CC1)Nc1ccccc1-n1cccc12 | 9
CCOC(=O)c1c(NC(=O)CN2CCN(c3ccc(Cl)cc3)CC2)sc(C)c1C | -11
O=C1NCCNC12CCN(S(=O)(=O)c1cc(Cl)c(Cl)s1)CC2 | -5
Cc1cc(C(=O)N2CCC(c3noc(-c4ccncc4)n3)CC2)cs1 | -15

The listing continues.
compound | Tgondii IFNg
O=C(Cc1ccccn1)N1CC2(C1)[C@H](c1ccccc1)[C@@H](CO)N2C(=O)c1ccncc1 | 14
CNC(=O)C1CC2CN(Cc3csc(C)n3)CC1O2 (stereo not drawn) | 34
COCCN1CC2(CCN(S(=O)(=O)C3CC3)CC2)COc2ccccc2S1(=O)=O | 196
Cc1nc(CN2CCN(C)C3(CCN(Cc4ccco4)CC3)C2=O)cs1 | 99
O=C(NCCCN1CCOCC1)[C@@H]1[C@@H](CO)[C@@H]2Cn3c(cccc3=O)[C@H]1N2C(=O)NC1CCCC1 | -10
COC(=O)CCNc1ccc(Cl)cc1 | 23
Cc1oc(-c2cccc(Cl)c2)nc1CN(c1ccccc1)S(=O)(=O)c1cccs1 | -38
CCN1[C@@H]2CCN(C(=O)c3ccc[nH]3)CC[C@@H]2Oc2ccccc2S1(=O)=O | -5
Cc1cccnc1CN(Cc1ccccc1)C(=O)CN1CCCN(C)CC1 | 9
CC(C)CCNC(=O)Cn1ncc2c(N3CCC(C)CC3)ncnc21 | 131
Cc1cccc(NC(=O)c2ccc3nnc(C4CN(S(C)(=O)=O)CCN4C)n3c2)c1 (stereo not drawn) | 6
CCOc1ccc(C2CCCN2C(=O)c2ccc(-n3cnnn3)cc2)cc1 (stereo not drawn) | 8
COc1cccc(OCC(=O)N2CCN(S(=O)(=O)c3cc4c5c(c3)CCN5C(=O)CC4)CC2)c1 | -41
N#Cc1c(NC(=O)C2CC(=O)N(C3CCCCC3)C2)sc2c1CCCC2 (stereo not drawn) | ?
CO[C@H](CN(C)S(=O)(=O)c1ccc(C)cc1)[C@H](C)CN([C@@H](C)CO)S(=O)(=O)c1cccc(Cl)c1 | -48
CCN1C[C@]23CN(Cc4cnn(C)c4)C[C@@H](C[C@H]2S1(=O)=O)O3 | i
O=C(OCc1ccco1)c1cccc(S(=O)(=O)N2CCOCC2)c1 | 10
Fc1cccc(CSc2nc(Nc3ccc4c(c3)OCO4)c3ccccc3n2)c1 | -48
CN(C)C(=O)N1CCC2(C1)CN(c1cnn(C)c1)C(=O)CN2C (stereo not drawn) | -4
O=C(O)CCCN1C(=O)NC2NC(=O)NC21 (stereo not drawn) | 0
O=C(OC1CS(=O)(=O)CC1OC(=O)c1ccccc1)c1ccccc1 (stereo not drawn) | -2
Cc1cccnc1[C@H](C)NC(=O)Cn1cc(C)c(=O)[nH]c1=O | 1
Clc1ccc(N=C2c3ccccc3CN2c2ccc(Cl)cc2)cc1 | ?
COc1cccc(N2CC3(CCN(c4cc(OC)ncn4)C3)CC2=O)c1 (stereo not drawn) | -15
COc1ccc(N2C(=O)[C@@H]3[C@H](C2=O)[C@H]2c4ccccc4C=CN2[C@@H]3C(C)=O)cc1 | 40
Cc1ccccc1-c1ncc(-c2ccc(Br)cc2)o1 | 160
Cc1ccc(NC(=O)N2CCCn3nnc(CN4CCCCC4)c3C2)cc1 | 11
CCOc1ccccc1-c1noc(-c2c(O)c3ccc(F)cc3n(C)c2=O)n1 | 0
CN1C(=O)CCc2cc(NC(=O)C3CCCO3)ccc21 (stereo not drawn) | 5
CCOCC(=O)NC(Cc1ccccc1)C(=O)N1Cc2ccccc2OCC1CN(C)C (stereo not drawn) | -3
CCCC(=O)Nc1cccc(C(=O)NC(C)Cc2cnccn2)c1 (stereo not drawn) | 2
COc1cccc(NC(=O)C(=O)NCCc2csc(-c3ccc(C)cc3)n2)c1 | 306
COc1ccc(CC(=O)N2CCc3nc(-c4ccc(F)cc4)nc(C)c3CC2)cc1 | -8
O=C(CN1CCOCC1)N1CCCCN2[C@H](C1)[C@@H](c1ccc(Br)cc1)[C@@H]2CO | 15
